# Rango complex inh – qHTS Assay for Inhibitors of Rango (Ran-regulated importin-beta cargo) - Importin beta complex formation | Importin subunit beta-1 (Homo sapiens), Q14974 | Rango CFP/YFP FRET sensor + importin beta, 45 min | Potency, µM (highest dose often 92.2 µM), inactives show at the top dose inhibition of complex formation | 340,000 compounds, 0.031% hits; active = rising FRET ratio curve, often small or poorly fitted; inconclusive = mostly compound fluorescence or quenching in the first reads; inactive = flat curves in all reads;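 further: potency means the concentration at half of the fitted maximal effect; 0% = DMSO wells and 100% = buffer wells lacking importin beta; nearly all actives have a fitted effect of over 15% in size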
#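 Inhibition scored from the CFP 486 nm/YFP 530 nm FRET ratio 45 min after adding 0.125 microM importin beta to 50 nM Rango biosensor preincubated 5 min with compound (room temperature, PBS with DTT, Tween-20, BSA). No-importin wells as positive control.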
# Rango dissoc inh – qHTS Assay for Inhibitors of RanGTP induced Rango (Ran-regulated importin-beta cargo) - Importin beta complex dissociation; Biochemical FRET Rango-importin beta, RanGTP-induced dissociation; AID 540253, 2011; Potency, µM (top dose mostly 46.1 µM), for the others: at the top dose activity change, negative = inhibition; 340,000 compounds, 0.071% hits; active means falling FRET ratio curve, often poorly fitted, with flat reads before Ran was added; inconclusive means other falling curves, or compound fluorescence or quenching; inactive means flat or rising ratio curve;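 further: potency means the concentration at half of the fitted maximal effect; % of control where 0% means no effect; nearly all actives have a fitted effect of over 45% in size; -100% = wells without RanGTP and RCC1; the record marks most hits as doubtful in a second field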
#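 Compounds sat 5 min at room temperature with 0.1 uM Rango biosensor plus 0.25 uM importin beta, then FRET pre-read. RanGTP-RCC1 (0.6 uM Ran, 2mM GTP, 0.2 uM RCC1) added for 45 min, and the CFP/YFP post-read measured blocked complex dissociation.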
# GLA inh pH 4.5 – qHTS Assay for Inhibitors of Human alpha-Galactosidase at pH 4.5; purified enzyme, 4-MU-alpha-Gal fluorescence, pH 4.5; activity change, negative = inhibition, % at 105 µM; 230,000 tested, under 10 active; inconclusive = small, poorly fitted or top-dose-only inhibition, or a rising curve; inactive = flat fitted curve, though single readings scatter; no compound was filed as active;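 further: 0% = full activity with enzyme and -100% = basal without enzyme; dose as in the result columns while the protocol names 77 µM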
# Target sequence (P06280 whole entry, looked up): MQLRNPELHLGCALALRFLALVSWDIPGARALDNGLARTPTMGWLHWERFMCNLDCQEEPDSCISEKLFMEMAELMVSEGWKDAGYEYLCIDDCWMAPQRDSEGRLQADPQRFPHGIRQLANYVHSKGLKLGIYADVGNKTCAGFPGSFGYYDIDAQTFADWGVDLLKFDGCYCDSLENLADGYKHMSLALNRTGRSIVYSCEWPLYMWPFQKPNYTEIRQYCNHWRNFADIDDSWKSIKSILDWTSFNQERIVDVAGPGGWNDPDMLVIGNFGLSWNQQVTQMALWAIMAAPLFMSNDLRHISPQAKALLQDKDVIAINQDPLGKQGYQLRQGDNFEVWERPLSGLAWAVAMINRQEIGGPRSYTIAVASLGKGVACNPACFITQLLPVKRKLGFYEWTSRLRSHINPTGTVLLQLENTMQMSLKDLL
# miR-21 reporter – qHTS Assay for Modulators of miRNAs and/orActivators of miR-21 | HeLa miR-21 FLuc reporter, luciferase, 48 h | Potency, µM (series often up to 38.3 µM), for inactives: top-dose reporter change, positive = more light | 340,000 tested, under 10 active | AID 2288, 2010; active = well fitted rising curve with a large enough effect; inconclusive = small, poorly fitted or top-dose-only effect; inactive = no such curve, though single readings can be large or run the other way;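 further: % of control where 0% means no effect; miR-21 action dims this reporter so a rising signal means less miR-21 action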
#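 HeLa cells endogenously expressing miR-21, stably carrying CMV-driven firefly luciferase with a downstream miR-21 binding site, 2000 cells/well. Titrations up to approximately 40 uM, 48 hours; luciferase luminescence read.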
# * marks the source's active call; other numbers are inactive results; ? = inconclusive; nt = no result given. The list is partial, so the mix of outcomes need not match the whole.
# Letter code – A = Rango complex inh; B = Rango dissoc inh; C = GLA inh pH 4.5; D = miR-21 reporter
> COc1cc(OC)c2c(c1)S(=O)(=O)C(c1ccccc1)=C2N
  A: 0.0%; B: 2%; C: -16; D: -1%
> COC(=O)CCc1c(C)c(C(=O)c2ccc(F)cc2)c2ccccn12
  A: -1.4%; B: -17%; C: -8; D: -5%
> C/C=C/c1cc(OC)c2c(c1)[C@H](C)[C@@H](c1ccc(O)c(OC)c1)O2
  A: 0.1%; B: ?; C: nt; D: nt
> COC(=O)c1ccc(NC(=O)N2CCC(O)(c3cccnc3)CC2)cc1
  A: -4.8%; B: -15%; C: -2; D: -7%
> Cc1cc(NC(=O)CCC(=O)N(CC(=O)NCC2CCCO2)c2ccccc2)no1 (configuration not stated)
  A: 0.6%; B: 5%; C: nt; D: 2%
> CCOC(=O)CN1CC23C=CC(O2)C(C(=O)N2CCN(c4ccc(F)cc4)CC2)C3C1=O (configuration not stated)
  A: 2.5%; B: 20%; C: 4; D: -9%
> O=C(Cn1cc2c(n1)CCCCC2)N1CCc2ccccc2C1
  A: 4.9%; B: 2%; C: -14; D: -1%
> Cc1cc(C)c(NC(=O)C2CCCN2C(=O)NC2CCCCC2)c(C)c1 (configuration not stated)
  A: 12%; B: 16%; C: -20; D: 2%
> CCOc1c2ccc(C(=O)NC3CCCc4ccccc43)cc2nn1C (configuration not stated)
  A: -2.6%; B: 0%; C: 4; D: -2%
> Cc1nc2ccc(NS(=O)(=O)c3c(C)c(C)cc(C)c3C)cc2s1
  A: -0.4%; B: 0%; C: 7; D: 23%

# Quoted at random: three records from the list
# Letter code – A = Rango complex inh; B = Rango dissoc inh; C = GLA inh pH 4.5; D = miR-21 reporter
> COC(=O)CCc1c(C)c(C(=O)c2ccc(F)cc2)c2ccccn12
  A: -1.4%; B: -17%; C: -8; D: -5%
> Cc1nc2ccc(NS(=O)(=O)c3c(C)c(C)cc(C)c3C)cc2s1
  A: -0.4%; B: 0%; C: 7; D: 23%
> CCOC(=O)CN1CC23C=CC(O2)C(C(=O)N2CCN(c4ccc(F)cc4)CC2)C3C1=O (configuration not stated)
  A: 2.5%; B: 20%; C: 4; D: -9%

# Back to the main list, starting 3 compounds before the break.
# Letter code – A = Rango complex inh; B = Rango dissoc inh; C = GLA inh pH 4.5; D = miR-21 reporter
> Cc1cc(C)c(NC(=O)C2CCCN2C(=O)NC2CCCCC2)c(C)c1 (configuration not stated)
  A: 12%; B: 16%; C: -20; D: 2%
> CCOc1c2ccc(C(=O)NC3CCCc4ccccc43)cc2nn1C (configuration not stated)
  A: -2.6%; B: 0%; C: 4; D: -2%
> Cc1nc2ccc(NS(=O)(=O)c3c(C)c(C)cc(C)c3C)cc2s1
  A: -0.4%; B: 0%; C: 7; D: 23%
> CN(Cc1ccco1)S(=O)(=O)c1ccc2c(c1)CCN2C(=O)CCC(=O)O
  A: 3.7%; B: -4%; C: -6; D: -5%
> CCN1C(=O)[C@@H]2[C@@H](c3ccc(-c4ccc(F)cc4)c(OC)c3)N3CCC[C@@]3(C(=O)OC)[C@@H]2C1=O
  A: -0.7%; B: 2%; C: nt; D: nt
> CCOc1ccc2c(c1)OC1(CCC(C)C1)CC2=O (configuration not stated)
  A: -1.5%; B: 12%; C: nt; D: nt
> Cc1ccccc1NC(=S)NC(C)C(c1ccccc1)N1CCN(C)CC1 (configuration not stated)
  A: -5.3%; B: -8%; C: -8; D: -1%
> CCOC(=O)CSc1nc2sc3c(c2c(=O)n1-c1ccc(C)cc1)CCN(C)C3
  A: ?; B: -14%; C: nt; D: -4%
> Cc1cccc(C)c1NC1=NC(=S)N(c2ccccc2)C12CCOC(C)(C)C2 (configuration not stated)
  A: 0.4%; B: 1%; C: -3; D: -2%
> C=CCn1c(CNC(=O)c2cccs2)n[nH]c1=S
  A: -0.4%; B: 0%; C: 8; D: 0%
> CC(=O)c1ccccc1NS(=O)(=O)c1cccc2nonc12
  A: 1.2%; B: -19%; C: nt; D: -2%
> Cc1ccc(S(=O)(=O)C(CNC(=O)C(C)C)c2cccs2)cc1 (configuration not stated)
  A: 1.4%; B: 2%; C: nt; D: -12%
> Cc1sc(N)c(C(=O)c2ccccc2Cl)c1C
  A: -0.3%; B: 0%; C: -6; D: -2%
> COc1ccc(C(=O)NC2CC2)cc1OC1CCN(Cc2ccc(NC(C)=O)cc2)CC1
  A: -2.5%; B: 10%; C: nt; D: -3%
> COc1cccc(Cn2cc(-c3cccc(C(F)(F)F)c3)nn2)c1
  A: -0.8%; B: 1%; C: nt; D: -11%
> C=CCNC(=O)COC(=O)c1oc2ccccc2c1CSC1CCCCC1
  A: 0.2%; B: -6%; C: 0; D: -5%
> Cc1cccc2c1N(CCCOc1ccc(C(C)(C)C)cc1)C(=O)C2=O
  A: 5.7%; B: 21%; C: -14; D: -6%
> O=P(COCCOCCOCCOCP(=O)(c1ccccc1)c1ccccc1)(c1ccccc1)c1ccccc1
  A: -1.8%; B: 24%; C: -2; D: -3%
> CC(Oc1ccc(F)cc1)c1ccnc2nc(/N=C/N(C)C)nn12 (configuration not stated)
  A: -2.8%; B: 19%; C: -8; D: -8%
> CNC(=S)N(CCc1ccccc1)Cc1cc2cc(OC)c(OC)cc2[nH]c1=O
  A: -4.0%; B: -13%; C: ?; D: -12%
> COc1ccc(OC)c(-c2csc(N3CCC(c4ccccc4)CC3)n2)c1
  A: 2.1%; B: 7%; C: ?; D: 1%
> CC(C)Cn1c(=O)c2ccccc2n2c(CCC(=O)O)nnc12
  A: 0.1%; B: -5%; C: nt; D: 0%
> COc1cc(NC(=O)c2cccs2)ccc1NC(=O)Cc1ccccc1
  A: 0.0%; B: 2%; C: nt; D: -15%
> COc1cccc(-c2csc(N3CCN(Cc4ccccc4)CC3)n2)c1
  A: -1.0%; B: -11%; C: -7; D: -18%
> Cc1cc(OC(=O)c2c(Cl)cccc2Cl)nc(C)n1
  A: 3.7%; B: -2%; C: -3; D: 0%
> Cc1cc(NS(=O)(=O)c2ccc(NC(=O)c3cc(-c4cccnc4)nc4ccc(Cl)cc34)cc2)no1
  A: 4.8%; B: 0%; C: -16; D: -8%
> COc1ccc2oc(C(=O)OCC(=O)N(C)CC(=O)Nc3ccc(C)cc3)c(C)c2c1
  A: 0.2%; B: 8%; C: nt; D: nt
> COc1cccc(OC)c1C(=O)Nc1ccc2c(c1)Cc1ccccc1-2
  A: -1.2%; B: 13%; C: -8; D: -22%
> NC(=O)C(CC(=O)O)NC(=O)[C@@H]1CCCNc2c(I)cc([N+](=O)[O-])cc2C(=O)N[C@@H](CO)C(=O)N[C@@H](Cc2ccc(O)cc2)C(=O)N1 (some centres not stated)
  A: 2.2%; B: -8%; C: 5; D: -12%
> CN(C)c1nc(N(C)C)nc(N(C#N)Cc2ccc(Cl)cc2)n1
  A: 1.8%; B: -9%; C: nt; D: 0%
> O=C(NC1CC(=O)N(c2ccc(Cl)cc2)C1)C1CC1 (configuration not stated)
  A: 0.2%; B: 15%; C: nt; D: nt
> CCCc1cc(=O)[nH]c(SCC(=O)N2CCC(C)CC2)n1
  A: 0.2%; B: 7%; C: nt; D: 2%
> Cn1c(=O)[nH]c(=O)c2c1nc(OC(=O)c1ccccc1)n2CC(O)COc1ccc(F)cc1 (configuration not stated)
  A: 2.5%; B: -1%; C: 0; D: -2%
> O=C(COC(=O)[C@@H]1CC(O)CN1S(=O)(=O)c1ccc(Cl)cc1)NC(=O)NCc1ccccc1 (some centres not stated)
  A: 1.2%; B: 18%; C: nt; D: nt
> O=C(c1ccco1)N(CCO)Cc1cc2cc3c(cc2[nH]c1=O)OCO3
  A: -1.9%; B: 31%; C: -4; D: -1%
> COc1cc(/C=C2/C(=O)ON=C2C)ccc1OCc1ccccc1F
  A: 1.7%; B: -1%; C: 1; D: -30%
> COCc1cc(Sc2c(Cl)cccc2Cl)nc(-c2ccccc2)n1
  A: 0.7%; B: -1%; C: 3; D: -1%
> O=C(N/N=C/c1cc2c(cc1Cl)OCO2)c1ccc2c(c1)OCCO2
  A: -0.8%; B: 0%; C: 1; D: -27%
> COc1ccc2[nH]cc(CCCN3C(=O)c4ccccc4C3=O)c2c1
  A: -2.5%; B: -3%; C: 2; D: 0%
> CCOc1ccc(NC(=O)CCNC(=O)C2CCN(S(=O)(=O)c3ccccc3)CC2)cc1
  A: 1.9%; B: 16%; C: nt; D: 2%
> COc1ccc(CCNC(=O)C(=O)NN=C2CCCCCCC2)cc1OC
  A: 2.0%; B: -5%; C: 0; D: -1%
> O=C(NCC(=O)N(CC1CCCO1)C(C(=O)NC1CCCCC1)c1cccnc1)c1cccs1 (configuration not stated)
  A: 2.6%; B: 1%; C: 6; D: -3%
> COc1ccc(CNC(=O)c2csc(Cc3ccccc3)n2)cc1
  A: -3.2%; B: -3%; C: -12; D: -48%
> CCCCN(C(=O)CSc1nn(-c2ccc(F)cc2)c(=S)s1)c1c(N)n(CCCC)c(=O)[nH]c1=O
  A: ?; B: -11%; C: nt; D: nt
> Cc1ccc(C(=O)C2CCN(S(=O)(=O)c3ccccc3C(=O)O)CC2)cc1
  A: 0.1%; B: 9%; C: nt; D: 0%
> CCC1OC(=O)C(C)C(OC2C[C@@](C)(OC)C(O)C(C)O2)C(C)C(O[C@@H]2OC(C)CC(N(C)C)C2O)[C@](C)(O)CC(C)C(=NOCOCCOC)C(C)C(O)[C@]1(C)O (some centres not stated)
  A: -0.3%; B: -1%; C: nt; D: nt
> CN(C(=O)C1CCC(=O)N(Cc2cccc(F)c2)C1)C1CCCCC1 (configuration not stated)
  A: -1.0%; B: 0%; C: nt; D: -40%
> O=C(O)CCN(CCC(=O)O)S(=O)(=O)c1ccccc1
  A: -2.5%; B: -8%; C: 3; D: -4%
> COc1ccc(CCN2CC(C(=O)NCCN3CCCC3=O)CCC2=O)cc1 (configuration not stated)
  A: 1.9%; B: ?; C: nt; D: -1%
> O=C(OC(C(=O)NCC1CCCO1)c1ccccc1F)c1ccco1 (configuration not stated)
  A: -0.1%; B: 0%; C: 7; D: 0%
> COc1ccc(/C=N/NC(=O)C(=O)N2CCCCCC2)cc1O
  A: 0.4%; B: 0%; C: nt; D: 2%
> O=C(C1CCN(C2CCN(Cc3ccc4c(c3)CCO4)CC2)CC1)N1CCOCC1
  A: 0.4%; B: 8%; C: 4; D: -1%
> CCOc1ccc(-n2cnc3sc(C)c(C)c3c2=O)cc1
  A: 0.3%; B: 25%; C: nt; D: -7%

# Remaining list, next part
# Letter code – A = Rango complex inh; B = Rango dissoc inh; C = GLA inh pH 4.5; D = miR-21 reporter
> Cc1ccccc1C(=O)NNC(=O)c1cccc([N+](=O)[O-])c1
  A: 0.1%; B: -16%; C: -1; D: 1%
> COC(=O)COc1nc(C)c(Br)c(OC)n1
  A: 1.3%; B: -12%; C: 1; D: 0%
> O=c1c2ccccc2nc2n1CCO2
  A: 0.3%; B: -12%; C: nt; D: -1%
> CCOC(=O)C1CCN(CC(C)(C)NS(=O)(=O)c2ccc(Cl)cc2)CC1
  A: -0.7%; B: 8%; C: nt; D: 0%
> CCOC(=O)c1c(NC(=O)CN(CC)CC)sc2c1CCC2
  A: 2.2%; B: 12%; C: 7; D: -8%
> O=C(CNCCc1ccccc1)N1CCc2ccccc2C1
  A: 2.5%; B: -6%; C: 2; D: -10%
> CSc1cccc(NC(=O)Cc2ccccc2[N+](=O)[O-])c1
  A: 0.7%; B: -10%; C: -9; D: -16%
> Cc1ccc2nc(N(CCCN(C)C)C(=O)c3sc4ccccc4c3Cl)sc2c1
  A: 4.7%; B: -13%; C: -4; D: -14%
> CC(=O)c1cccc(NC(=O)CN(c2ccc(C)cc2)S(=O)(=O)c2cccc3nonc23)c1
  A: 0.0%; B: -5%; C: -10; D: -5%
> Cc1cccc(OCC(=O)NNC(=O)c2ccccc2OCc2c(C)noc2C)c1
  A: -1.4%; B: 11%; C: nt; D: nt
> C[C@@H]1CN([C@H](C)CO)C(=O)c2cccc(NC(=O)Nc3ccc(C(F)(F)F)cc3)c2O[C@H]1CN(C)S(=O)(=O)c1cccs1
  A: -0.6%; B: -1%; C: nt; D: nt
